Screening data as filed in PubChem.
DUX4 txn inh: blocks DUX4-driven transcriptional activation. activity change, negative = inhibition, % (concentration not given with the values). 293T-iDUX4 ZSCAN4-Gaussia luciferase reporter, 24 h; stronger effect = lower value. 0.8% of 37,000 active. AID 1224904;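 active = -10% or lower and over 25 points stronger than a control reporter; inconclusive = -10% or lower with a smaller gap; inactive = above -10%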;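 note: 0% = median of neutral control wells and -100% = median of positive control wells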
DUX4 txn inh difference: recorded beside DUX4 txn inh, whose call it bears; Gaussia minus Italica difference, %; measured here: selective DUX4 reporter inhibition;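 worked out from the two reporters; negative = selective loss of the DUX4 reporter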
DUX4 txn inh control: also measured in DUX4 txn inh; calls as there; activity change, negative = inhibition, %; measured here: Italica tet-on control reporter;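 0 = neutral control and -100 = positive control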
* marks the source's active call; other numbers are inactive results; ? = inconclusive; nt = no result given; & = joins results of further samples. This is a subset. The share of hits here may be higher or lower than overall.

Start of the listing, in advance:
SMILES | DUX4 txn inh | DUX4 txn inh difference | DUX4 txn inh control
CCCNC(=O)N1C[C@@H](O)COC[C@H]2O[C@@H](CC(=O)N[C@@H]3CCN(Cc4ccccc4)C3)CC[C@@H]21 | 9 | 13 | -3.9
C[C@@H]1CN([C@@H](C)CO)C(=O)Cc2cc(NC(=O)Nc3ccc(F)cc3)ccc2O[C@H]1CN(C)Cc1ccc(-c2ccccc2)cc1 | 5 | 6 | -0.9

The list itself, previewed entries included:
SMILES | DUX4 txn inh | DUX4 txn inh difference | DUX4 txn inh control
CCCNC(=O)N1C[C@@H](O)COC[C@H]2O[C@@H](CC(=O)N[C@@H]3CCN(Cc4ccccc4)C3)CC[C@@H]21 | 9 | 13 | -3.9
C[C@@H]1CN([C@@H](C)CO)C(=O)Cc2cc(NC(=O)Nc3ccc(F)cc3)ccc2O[C@H]1CN(C)Cc1ccc(-c2ccccc2)cc1 | 5 | 6 | -0.9
COCC(=O)N1CC(=O)N2[C@H](CO)[C@H](c3ccc(C#CCc4ccccc4)cc3)[C@@H]2C1 | 4 | -7 | 11
CCCNC(=O)N1CC2(C1)CN(C(=O)COC)[C@@H](CO)c1c2c2ccc(OC)cc2n1C | 18 | 4 | 14
O=C(Nc1ccc(F)cc1)N1[C@@H]2CNC[C@H]1C2c1ccc(/C=C/c2ccccc2)cc1 (stereo partly specified) | 0&4 | -7&11 | 6.7&-6.9
C/C=C/c1ccc([C@H]2[C@H](CO)N3CCCCN(S(=O)(=O)c4cccc(C)c4)C[C@@H]23)cc1 | ? | nt | nt
CCC(=O)N1C[C@@H](C)[C@H](OC)CN(C)C(=O)c2cc(NC(=O)C3CC3)ccc2OC[C@H]1C | 3 | 3 | 0.6
CO[C@@H]1CC[C@@H]2CCOc3c(C#N)cccc3C(=O)N(C)C[C@@H](c3ccccc3)CC(=O)N(C)C[C@H]1O2 | 6 | 4 | 2.3
COc1ccc(S(=O)(=O)Nc2cccc3c2O[C@@H](CN(C)CC2CCCCC2)[C@@H](C)CN([C@H](C)CO)C3=O)cc1 | 2 | -1 | 3.1
COc1ccc2c3c([nH]c2c1)[C@H](CO)N(C(C)=O)CC31CN(Cc2ccccc2Cl)C1 | -5 | 13 | -18
OC[C@@H]1[C@@H](c2ccc(C#Cc3ccccc3F)cc2)[C@@H]2CN(CC3CCOCC3)CCCCN12 | -28* | -27* | -1.5*
COCC(=O)N(C)C[C@@H]1Oc2ncc(C#Cc3ccncc3)cc2C(=O)N([C@@H](C)CO)C[C@@H]1C | -1 | -5 | 4.1
O=C(NC1CCCCC1)[C@@H]1[C@@H](CO)[C@@H]2Cn3c(cccc3=O)[C@@H]2N1C(=O)CC1CC1 | 5 | 2 | 2.5
C[C@@H]1CN([C@H](C)CO)C(=O)c2cc(NS(=O)(=O)c3cccs3)ccc2O[C@@H](C)CCCCO[C@@H]1CN(C)Cc1ccc(Cl)c(Cl)c1 | -3 | 1 | -3.3
COc1ccc(S(=O)(=O)N2C[C@@H](O)COC[C@@H]3O[C@@H](CC(=O)NCc4ccc(Cl)c(Cl)c4)CC[C@H]32)cc1 | ? | nt | nt
O=C(Nc1cccc(F)c1)N1C[C@H]2[C@@H](c3ccccc31)[C@@H](CO)N2C(=O)c1ccccn1 | -6 | -1 | -4.8
O=C(C1CCCC1)N1[C@@H](CO)[C@@H](c2ccccc2)C12CN(Cc1ccc(F)cc1)C2 | ? | nt | nt
O=C(NCC1CC1)[C@H]1[C@H](CO)[C@H]2Cn3c(ccc(-c4ccncc4)c3=O)[C@@H]1N2Cc1nccs1 | -2 | -7 | 5.3
O=C(C[C@H]1CC[C@H]2[C@@H](COC[C@H](O)CN2C(=O)c2ccccc2)O1)N1CCOCC1 | 6 | 2 | 4.6
C[C@@H]1CN([C@H](C)CO)C(=O)c2cccc(NS(=O)(=O)c3ccc(Cl)cc3)c2O[C@@H]1CN(C)Cc1ccc(C(=O)Nc2ccccc2N)cc1 | 2 | -1 | 2.9
O=C(Nc1ccccc1)N1C[C@@H]2[C@H](c3ccccc31)[C@@H](CO)N2Cc1ccccc1Cl | 0 | 3 | -2.8
C[C@H]1CN([C@@H](C)CO)C(=O)Cc2cc(NC(=O)Cn3cnnn3)ccc2O[C@H]1CN(C)CC1CCCCC1 | -3 | -2 | -0.3
O=C(Nc1ccccc1F)N1CC(=O)N2[C@H](CO)[C@@H](c3ccc(-c4cccnc4)cc3)[C@H]2C1 | -4 | -1 | -2.6
COc1cccc(C#Cc2ccc([C@@H]3[C@H](CO)N4C(=O)CN(S(=O)(=O)c5ccccc5C)C[C@@H]34)cc2)c1 | 11 | 25 | -14
C[C@H](CO)N1C[C@H](C)[C@@H](CN(C)C(=O)Nc2cccc(F)c2)OCc2ccccc2-c2c(n(C)c3ccccc23)C1=O | ? | nt | nt
Following part:
SMILES | DUX4 txn inh | DUX4 txn inh difference | DUX4 txn inh control
C[C@@H]1CN([C@@H](C)CO)C(=O)c2c(c3ccccc3n2C)-c2ccccc2CO[C@@H]1CN(C)Cc1ccc2c(c1)OCO2 | 0 | -6 | 6.3
CN(C)C(=O)c1ccc(-c2ccccc2[C@H]2[C@H](C#N)N(C(=O)C3CCC3)[C@H]2CO)cc1 | 7 | -2 | 9.0
Cc1ccc(S(=O)(=O)Nc2ccc3c(c2)C(=O)N([C@@H](C)CO)C[C@H](C)[C@@H](CN(C)S(=O)(=O)c2cccs2)OCCCC[C@@H](C)O3)cc1 | -4 | -3 | -0.5
CO[C@H]1CN(C)C(=O)c2ccc(NC(=O)NC(C)C)cc2OC[C@@H](C)N(C(=O)NC(C)C)C[C@H]1C | 2 | 1 | 1.8
C[C@@H]1CN([C@@H](C)CO)C(=O)c2ccccc2-c2ccccc2CO[C@@H]1CN(C)S(=O)(=O)c1cn(C)cn1 | -1 | -3 | 1.9
COc1ccccc1NC(=O)N[C@@H]1CC[C@@H](CC(=O)N[C@H](C)c2ccccc2)O[C@@H]1CO | 1 | 0 | 1.2
COc1ccc2c3c(n(C)c2c1)[C@@H](CO)N(C(=O)c1ccncc1)CC31CN(S(C)(=O)=O)C1 | 2 | 6 | -4.1
O=C(CN1CCOCC1)N1CC(=O)N2[C@H](CO)[C@H](c3ccc(-c4cccc(F)c4)cc3)[C@@H]2C1 | -1 | -6 | 5.5
CO[C@@H](C(=O)N(C)C[C@H]1OCc2ccccc2-c2ccccc2C(=O)N([C@@H](C)CO)C[C@@H]1C)c1ccccc1 | -2 | -5 | 2.3
CO[C@H](CN(C)Cc1ccc(-c2ccccn2)cc1)[C@@H](C)CN(C(=O)Nc1ccc(F)cc1)[C@@H](C)CO | 3 | 6 | -2.9
CN(C)C(=O)[C@H]1[C@H](CO)[C@H]2Cn3c(ccc(-c4ccc(F)cc4)c3=O)[C@H]2N1C(=O)c1ccccn1 | -1 | -1 | 0.2
O=C(C[C@@H]1CC[C@H](NC(=O)c2ccccn2)[C@H](CO)O1)NCc1cc(F)cc(F)c1 | -1 | -1 | -0.3
O=C(c1ccccc1F)N1C[C@H]2[C@@H](c3ccccc31)[C@H](CO)N2Cc1ccc2c(c1)OCO2 | -3 | -1 | -2.2
C[C@@H]1CN([C@@H](C)CO)C(=O)c2cc(NC(=O)Nc3ccc4c(c3)OCO4)ccc2O[C@@H](C)CCCCO[C@H]1CN(C)C(=O)CCCN(C)C | 3 | -1 | 3.6
CCC(=O)Nc1ccc2c(c1)C(=O)N(C)C[C@@H](OC)[C@H](C)CN(Cc1nccs1)[C@@H](C)CO2 | 0 | -5 | 5.3
CCCNC(=O)N1CC(=O)N2[C@H](CO)[C@@H](c3ccc(C#CCC4CCCC4)cc3)[C@H]2C1 | ? | nt | nt
C[C@@H]1CCCCO[C@@H](CN(C)C(=O)c2ccccc2)[C@H](C)CN([C@H](C)CO)C(=O)c2cc(NS(=O)(=O)c3ccc(F)cc3)ccc2O1 | -9 | 10 | -20
N#Cc1cccc(-c2ccc3c(c2)[C@@H]2[C@@H](CCN2C(=O)c2ccncc2)[C@H](CO)N3)c1 | 5 | 8 | -3.4
CC(C)NC(=O)Nc1ccc2c(c1)C(=O)N(C)[C@@H]1CC[C@H](CC(=O)NCC(F)(F)F)O[C@@H]1CO2 | -1 | -1 | 0.4
O=C(c1ccccc1)N1CC(=O)N2[C@@H](CO)[C@H](c3ccc(C4=CCCC4)cc3)[C@@H]2C1 | 12 | 1 | 12
O=C(C[C@H]1CC[C@H]2[C@@H](COC[C@H](O)CN2Cc2ccncc2)O1)NCC1CC1 | 3 | 1 | 1.8
C[C@H](CO)N1C[C@H](C)[C@@H](CN(C)S(=O)(=O)c2ccc(Cl)cc2)Oc2c(NC(=O)Nc3ccc(F)cc3)cccc2C1=O | 3 | 1 | 1.4
O=C(C[C@@H]1C[C@@H]2c3cc(NC(=O)c4ccc5c(c4)OCO5)ccc3O[C@@H]2[C@H](CO)O1)NCCc1ccccc1 | -4 | -4 | -0.1
COc1ccccc1CN(C)C[C@H]1OCc2ccccc2-c2c(n(C)c3ccccc23)C(=O)N([C@H](C)CO)C[C@H]1C | -3 | 0 | -3.1
O=C(NCC[C@@H]1CC[C@@H](NS(=O)(=O)c2ccc(F)cc2)[C@@H](CO)O1)c1ccc2c(c1)OCO2 | 2 | 0 | 2.1

Arranged by value in DUX4 txn inh control (high to low): some entries from above.
SMILES | DUX4 txn inh | DUX4 txn inh difference | DUX4 txn inh control
CCC(=O)Nc1ccc2c(c1)C(=O)N(C)C[C@@H](OC)[C@H](C)CN(Cc1nccs1)[C@@H](C)CO2 | 0 | -5 | 5.3
CO[C@H]1CN(C)C(=O)c2ccc(NC(=O)NC(C)C)cc2OC[C@@H](C)N(C(=O)NC(C)C)C[C@H]1C | 2 | 1 | 1.8
C[C@H](CO)N1C[C@H](C)[C@@H](CN(C)S(=O)(=O)c2ccc(Cl)cc2)Oc2c(NC(=O)Nc3ccc(F)cc3)cccc2C1=O | 3 | 1 | 1.4
C[C@@H]1CCCCO[C@@H](CN(C)C(=O)c2ccccc2)[C@H](C)CN([C@H](C)CO)C(=O)c2cc(NS(=O)(=O)c3ccc(F)cc3)ccc2O1 | -9 | 10 | -20

Other compounds:
SMILES | DUX4 txn inh | DUX4 txn inh difference | DUX4 txn inh control
O=C(NC1CCC1)[C@H]1[C@H](CO)[C@H]2Cn3c(ccc(-c4ccncc4)c3=O)[C@@H]1N2Cc1cocn1 | 6 | 0 | 5.7
C[C@H]1CN([C@@H](C)CO)C(=O)c2cc(NS(=O)(=O)c3ccc(Cl)cc3)ccc2O[C@H]1CN(C)CC1CCCCC1 | 1 | -4 | 4.7
C[C@H]1CN([C@@H](C)CO)C(=O)c2cccc(NC(=O)Nc3ccc(F)cc3)c2O[C@@H]1CN(C)S(=O)(=O)c1ccc(Cl)cc1 | -2 | -2 | 0.3
CCC(=O)N(C)C[C@@H]1[C@H](c2ccc(-c3ccccc3F)cc2)[C@H](CO)N1C(C)=O | 1 | 3 | -1.6
CCCNC(=O)N(C)C[C@H]1Oc2ncc(C#CC3CCCCC3)cc2C(=O)N([C@H](C)CO)C[C@@H]1C | -1 | 3 | -4.1
O=C([C@H]1[C@H](CO)[C@H]2Cn3c(ccc(-c4ccccc4F)c3=O)[C@H]2N1CC1CC1)N1CCCCC1 | 0 | 2 | -1.5
C[C@@H](NC(=O)N(C)C[C@@H]1OCc2ccccc2-c2ccccc2C(=O)N([C@@H](C)CO)C[C@@H]1C)c1ccccc1 | ? | nt | nt
COc1cccc(-c2ccc([C@@H]3[C@@H](CO)N4CCCCN(Cc5cncnc5)C[C@@H]34)cc2)c1 | 5 | 3 | 1.9
O=C(Nc1cccc(Cl)c1)N1C[C@H]2[C@@H](c3ccccc31)[C@H](CO)N2Cc1cccnc1 | -1 | -2 | 0.2
CN1CCN(C(=O)C[C@@H]2CC[C@H]3[C@@H](COC[C@@H](O)CN3C(=O)Cc3ccccc3)O2)CC1 | 7 | 2 | 5.4
COc1ccccc1-c1ccc2n(c1=O)C[C@@H]1[C@@H](CO)[C@H](C(=O)N(C)C)[C@H]2N1C(=O)c1cccnc1 | -1 | -8 | 7.2
O=C(C1CCOCC1)N1CC(=O)N2[C@H](CO)[C@H](c3ccc(C#CCc4ccccc4)cc3)[C@@H]2C1 | 7 | -2 | 9.1
O=C(C[C@H]1C[C@@H]2c3cc(NC(=O)c4cccnc4)ccc3O[C@@H]2[C@@H](CO)O1)NCc1ccc(Oc2ccccc2)cc1 | ? | nt | nt
COc1ccc(NC(=O)N(C)C[C@H]2OCc3ccccc3-c3c(n(C)c4ccccc34)C(=O)N([C@H](C)CO)C[C@H]2C)c(OC)c1 | 8 | 10 | -2.3
CC=Cc1ccc2n(c1=O)C[C@H]1[C@H](CO)[C@@H](C(=O)NCC3CC3)[C@@H]2N1CCC(F)(F)F (mixture of isomers) | -2 | -3 | 0.9
Cc1ccc(-c2ccc([C@@H]3[C@@H](CO)N4C(=O)CN(C(=O)Nc5cccc(F)c5)C[C@@H]34)cc2)cc1 | ? | nt | nt
CC=Cc1ccc2n(c1=O)C[C@H]1[C@H](CO)[C@@H](C(=O)NC3CCCC3)N(Cc3ccccc3)[C@@H]21 (mixture of isomers) | ? | nt | nt
C[C@H]1CN([C@@H](C)CO)S(=O)(=O)c2ccc(-c3cncnc3)cc2O[C@H]1CN(C)C(=O)c1cccc(F)c1 | -1 | -2 | 0.7
